# PINK1 expr mod: PINK1 expression modulation; AID 624263; Potency, µM (highest dose often 76.6 µM), for inactives: top-dose activation (PINK1 increase), usual class: activators; PINK1 immunofluorescence, high-content cytometry, 24 h; 410,000 tested, 0.2% active; active = well fitted activation curve with a large enough effect; inconclusive = small, poorly fitted or top-dose-only effect; inactive = flat fitted curve, though single readings scatter; cell line not stated here;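 also: potency is read from the fitted curve at half-maximal effect; % of control where 0% means no effect; nearly all actives have a fitted effect of over 65% in size; a mitochondrial uncoupler was the plate control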
#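 Measures PINK1 amount and localization on or inside mitochondria by immunofluorescence. Stable cells get compounds at 5 concentrations for 24 hours before fixation and staining; CCCP controls included.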
# D2 PAM: positive allosteric modulators of human D2 dopamine receptor. DiscoveRx D2 beta-arrestin cells, luminescence, 90 min; 100% = 57 uM dopamine signal. potentiation, % (concentration not given with the values). 360,000 tested, 0.23% active; active = potentiation of 50% or more; inconclusive = 30% to 50%; inactive = 30% or less;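 also: compound concentration not given in the record; tested on top of an EC20 dose of dopamine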
# Target sequence (P14416 whole entry, looked up): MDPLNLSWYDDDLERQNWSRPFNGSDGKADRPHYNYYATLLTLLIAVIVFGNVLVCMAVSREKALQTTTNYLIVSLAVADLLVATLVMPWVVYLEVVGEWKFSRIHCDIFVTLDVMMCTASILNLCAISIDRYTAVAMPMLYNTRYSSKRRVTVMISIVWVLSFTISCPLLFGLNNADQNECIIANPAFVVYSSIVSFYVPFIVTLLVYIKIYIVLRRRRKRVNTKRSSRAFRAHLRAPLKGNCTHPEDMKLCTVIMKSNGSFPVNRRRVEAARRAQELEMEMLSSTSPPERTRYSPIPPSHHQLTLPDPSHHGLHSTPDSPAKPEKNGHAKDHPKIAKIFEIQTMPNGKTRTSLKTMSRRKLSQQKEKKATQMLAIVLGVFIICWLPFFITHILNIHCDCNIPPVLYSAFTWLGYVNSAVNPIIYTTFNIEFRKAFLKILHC
#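 D2 cells co-treated with compound plus 50 nM dopamine (EC20) for 90 min at 37 deg C to detect potentiation. Beta-arrestin recruitment was read as enzyme-fragment luminescence after 1 h at ambient temperature. Full response was set by 57 uM dopamine.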
# CtBP-E1A inh: blocks the CtBP interaction with E1A | AlphaScreen GST-E1A/His-CtBP binding, 1536-well; hits give low values; control for the full effect not named in the record | activity change, % (concentration not given with the values) | 340,000 tested, 0.49% active; in the data active means activity change below about -65%; inconclusive means about -30% to -65%; inactive means above about -30%; also: % is scaled to controls: 0 for no effect and ±100 for the full control effect
#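 AlphaScreen with 125 nM GST-E1A and 125 nM His-CtBP (5X stocks) in Tris pH 8.0, 300 mM NaCl, BSA, Tween 20, TCEP. Compounds preincubated 2 h at 37 deg C, then glutathione donor/nickel acceptor beads added for 1 h at 37 deg C in dark.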
# TRPML1 ag: human mucolipin-1 channel agonism. TRPML1-expressing cells, Ca2+ dye fluorescence, FDSS; host cell line not named in the record; reference of the full effect not given here. AID 624414. 410,000 tested, 0.12% active. Q9GZU1. activation, % (no concentration beside the values); in the data active = activation above about 50%; inconclusive = about 30% to 50%; inactive = below about 30%; also: 0% is about no effect; the text of the record puts the active cut at 80%
# Target sequence (Q9GZU1 whole entry, looked up): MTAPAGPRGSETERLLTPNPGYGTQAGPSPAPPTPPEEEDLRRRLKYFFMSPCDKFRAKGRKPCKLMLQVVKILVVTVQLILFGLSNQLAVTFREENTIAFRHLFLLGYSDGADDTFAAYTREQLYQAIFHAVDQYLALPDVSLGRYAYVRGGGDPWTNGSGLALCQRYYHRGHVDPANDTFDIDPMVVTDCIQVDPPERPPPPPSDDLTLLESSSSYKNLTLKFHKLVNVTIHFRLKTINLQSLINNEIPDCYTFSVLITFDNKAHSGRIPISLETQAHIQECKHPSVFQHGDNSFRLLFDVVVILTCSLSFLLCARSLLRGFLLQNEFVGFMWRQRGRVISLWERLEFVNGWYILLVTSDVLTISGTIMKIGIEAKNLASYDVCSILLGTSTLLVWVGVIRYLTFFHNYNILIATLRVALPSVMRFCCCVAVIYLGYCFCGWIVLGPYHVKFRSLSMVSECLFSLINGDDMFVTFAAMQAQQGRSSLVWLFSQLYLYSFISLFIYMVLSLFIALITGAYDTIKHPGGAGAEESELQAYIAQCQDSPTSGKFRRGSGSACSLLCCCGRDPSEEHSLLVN
#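 Tet-induced TRPML1-DL cells, 1,500 per well, cultured overnight, were loaded with a no-wash Ca2+ dye for 45–90 min. Calcium fluorescence was recorded on the FDSS for 110 s after compound addition, before the EC80 agonist (4 uM 54-4) was added.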
# D2 agonist: human D2 receptor agonism in beta-arrestin assay | P14416 | DiscoveRx PathHunter D2 beta-arrestin, luminescence, 90 min; 100% = 57 uM dopamine signal | activation, % (test concentration not listed) | 360,000 tested, 0.084% active | AID 624465; in the data active = activation above about 40%; inconclusive = about 15% to 40%; inactive = below about 15%; also: compound concentration not given in the record; the text of the record calls up to 30% inactive
#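 Agonist mode: compounds alone added to overnight-plated D2 PathHunter cells for 90 min at 37 C, with 57 uM final dopamine (EC100) defining full response. Beta-arrestin recruitment detected by chemiluminescent reagent, read after 1 h at ambient temperature.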
# Six1-Eya2 inh: Six1/Eya2 interaction inhibition | Q15475+O00167 | AlphaScreen GST-Six1/His-Eya2 binding, biochemical; hits give low values; control for the full effect not named in the record | activity change, % (concentration not given with the values) | 360,000 tested, 0.56% active | AID 651725; in the data active = activity change below about -65%; inconclusive = about -30% to -65%; inactive = above about -30%; also: % is scaled to controls: 0 for no effect and ±100 for the full control effect
#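 Six1/Eya2 binding was read as AlphaScreen signal after compounds were pinned into GST-Six1 plus His-tagged Eya2 (5X stock 250/500 nM) in pH 8.0 Tris/NaCl/TCEP buffer, beads added, then incubated 1 h, 37 C, dark.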
# Numbers without * were called inactive; u = inconclusive; x = no result given; & = joins results of further samples; [ ] = another dose, or the depositor's remark.
no.	Molecule	PINK1 expr mod	D2 PAM	CtBP-E1A inh	TRPML1 ag	D2 agonist	Six1-Eya2 inh
1	O=C(Cn1cnc2cc([N+](=O)[O-])ccc2c1=O)Nc1cccc(S(=O)(=O)N2CCCCC2)c1	1.1%	4	u	1.7	4.4	-30
2	Cc1ccccc1NC(=O)COC(=O)CC1CCCC1	1.6%	1	-5	0.7	0.6	2
3	N#Cc1ccccc1Sc1ccccc1C(=O)OCC(=O)NC12CC3CC(CC(C3)C1)C2	0.2%	-6	0	0.8	2.3	4
4	CC(=O)N(CCC1(C(C)C)CCOC(C)(C)C1)C(C)c1cccs1 (configuration not stated)	0.4%	-13	-3	0.2	-19	-4
5	Cc1nc2ccccn2c1-c1csc(Nc2cccc(C(=O)O)c2)n1	2.2%	-5	-71*	0.4	3.6	u
6	COc1ccc(NC(=O)Cn2c(=O)oc3cc(Cl)ccc32)c(OC)c1	1.3%&0.5%	1	x	-0.6&2.5	-4.0	-4
7	O=S(=O)(NC1CCCC1)c1ccc(S(=O)(=O)N2CCc3ccccc32)cc1	-4.2%[38.3 µM]	-8	3	0.2	-0.3	-1
8	NC(=O)c1ccc(NC(=O)Cn2c(=O)n(-c3ccccc3)c(=O)c3oc4ccccc4c32)cc1	-2.7%	-5	1	0.6	-1.6	-3
9	CC(Oc1ccc(C(C)(C)C)cc1)C(=O)NC1CC(C)(C)NC(C)(C)C1 (configuration not stated)	0.4%	-2	4	1.3	-1.2	9
10	Cc1[nH]c2ccccc2c1/C=N/NC(=O)c1cccc(S(=O)(=O)Nc2ccccc2Cl)c1	1.9%	-1	u	0.0	-2.1	-24
11	Cc1ccc(NC(=O)CCC(=O)n2nc(C)cc2C)c(C)c1	x	4	8	0.2	-1.5	10
12	CC(C)C(C(=O)NCC1CCCO1)N(CC1CCCO1)C(=O)CNS(=O)(=O)c1ccccc1 (configuration not stated)	-0.5%	-4	-2	-0.3	-1.5	3
13	CC[C@@]12C(=O)N(c3ccccc3)C(=O)N1[C@H](c1ccc(OC)cc1)[C@@H]1C(=O)N(C(C)(C)C)C(=O)[C@@H]12	0.0%	-6	1	-0.5	1.4	-4
14	O=c1[nH]c2ccccc2n1CCCSCCCn1c(=O)[nH]c2ccccc21	-1.8%[38.3 µM]	-8	-2	-0.7	-0.6	-1
15	O=C(O)Cn1cc(C(=S)N2CCOCC2)c2ccccc21	5.8%[38.3 µM]	-2	8	0.4	-2.5	0
16	CCOC(=O)c1ccc(NC2OC(=O)c3ccccc32)cc1 (configuration not stated)	-0.3%	-18	-1	-0.1	-2.2	3
17	O=C(NCCCN1CCCCC1)C1CCN(c2ncnc3c2nc2n3CCCCC2)CC1	-1.3%	-19	1	-0.7	-5.0	3
18	CCN(CC)S(=O)(=O)c1ccc2c(c1)nc(CCC(=O)O)n2C	0.8%	-1	6	x	0.7	3
19	CCOc1ccc(C2=[N+]([O-])C(C)(C)N(O)C2(C)C)cc1	-1.1%	8	21	-0.5	4.6	12
20	COc1ccc(/C=N/N=C2/NC(=O)C(CC(=O)NC(C)C)S2)cc1 (configuration not stated)	0.6%	-7	-8	-0.6	-3.8	-6
21	CCNc1nc(NC(C)C)nc(N(C)C#N)n1	-1.0%	-2	-3	x	-0.2	5
22	COc1ccc(C(CNC(=O)c2cccc(S(=O)(=O)Nc3ccccc3OC)c2)N2CCCC2)cc1 (configuration not stated)	5.7%	-34	-9	0.3	0.2	2
23	O=C(O)c1cc(N=Cc2c(O)c3ccccc3oc2=O)ccc1O	4.7%	3	-2	x	-5.3	-10
24	N#Cc1ccc(N2CCCNCC2)nc1	-1.3%	-8	0	2.7	0.9	11
25	COc1cccc(C(C)(O)c2nc(-c3cccc(F)c3)cs2)c1 (configuration not stated)	7.5%	-2	-2	-0.5	6.5	8
26	O=C(N/N=C1\CCCc2ccccc21)c1ccc([N+](=O)[O-])cc1Cl	-1.1%	12	-7	3.9	1.4	-4
27	COc1ccc(NC(=O)N2CCN(c3ccc([N+](=O)[O-])cc3)CC2)cc1OC	-1.2%	-7	-2	1.4	1.0	-9
28	NC(=O)CC1NC(=O)c2ccccc21 (configuration not stated)	0.9%	-1	2	-0.7	-0.1	4
29	CN(C)C(=S)NC(=NCc1ccc([N+](=O)[O-])cc1)c1ccccc1	2.6%	-16	-7	-0.7	0.3	-4
30	CCC(c1nnnn1-c1ccc2c(c1)OCCO2)N1CCN(C/C=C/c2ccccc2)CC1 (configuration not stated)	-1.1%	-1	-12	-0.6	10	-18
31	COC(=O)/C=C/c1cnc2ccccc2c1	0.0%	-6	3	-0.1	2.2	-4
32	Cc1onc(-c2c(F)cccc2Cl)c1C(=O)Nc1nc2ccccc2[nH]1	0.4%	7	-12	-0.1	-0.2	-1
33	Cn1cncc1C#Cc1c(-c2ccsc2)sc2ccccc12	0.4%	-21	-9	-0.7	-6.0	-10
34	O=C(COC(=O)c1c[nH]c2ccccc12)NC1CCCCC1	0.1%	1	x	-0.6	-2.6	0
35	Cc1nc(NC(=O)c2ccccc2)sc1-c1cc(C(=O)N2CCOCC2)nn1Cc1ccccc1	5.7%	0	-3	1.4	-2.6	4
36	O=C(c1ccc([N+](=O)[O-])cc1)c1cc2ccc(O)cc2oc1=O	2.9%	0	1	-0.5	2.6	3
37	O=C(Cn1c(NCCCO)nc2ccccc21)c1ccc(F)cc1	5.1%	-3	0	1.3	1.4	4
38	COC(=O)c1ccc(N2C(c3cc(OC)cc(OC)c3)=Cc3ccc(-c4cccnc4)cc3C2CC(=O)C2CC2)cc1 (configuration not stated)	0.5%	x	37	0.2	x	26
39	Cc1noc(C)c1COc1ccc(C(=O)NCC(c2c(F)cccc2Cl)N(C)C)cc1 (configuration not stated)	1.5%	-16	4	-0.3	-4.7	-5
40	CCC(Cc1ccccc1)NC(=O)Cn1ncc2ccsc2c1=O (configuration not stated)	-0.9%	0	-15	-0.1	-2.6	16
41	COC(=O)CSc1nnc(CNC(=O)c2ccc(OC)cc2OC)n1C	-1.5%[38.3 µM]	-6	8	0.0	-1.7	1
42	O=C(O)c1cccc(-c2csc(C(O)c3ccc(F)cc3)n2)c1 (configuration not stated)	1.2%	-3	8	-0.3	-3.7	5
43	c1ccc(-c2nnc(-c3ccccc3)nn2)cc1	2.8%	-7	12	-0.8	-0.3	7
44	COCc1[nH]nc2c1C(c1ccsc1)C(C#N)=C(N)O2 (configuration not stated)	1.2%	-8	5	2.1	-1.7	5
45	CC(C)(C)CC(=O)O/N=C(\N)c1ccncc1	3.1%	11	0	0.1	6.0	-2
46	CCOc1ccccc1C(=O)N(Cc1ccccc1)Cc1cc2cc3c(cc2[nH]c1=O)OCCO3	19%[38.3 µM]	-22	0	0.1	1.1	1
47	CS(=O)(=O)N(CC(=O)NCCSCc1ccco1)c1ccc2c(c1)OCO2	0.0%	0	-8	0.3	2.8	1
48	O=C(Nc1ncc(Br)s1)C(Cc1ccccc1)n1cccc1 (configuration not stated)	u	-4	4	1.5	3.1	-18
49	O=[N+]([O-])c1ccc(N2CCN(S(=O)(=O)c3ccccc3)CC2)cc1	6.7%	-5	0	0.9	-0.4	13
50	CCOC(=O)/C=C(/C)N1N=C(c2ccc(OC)cc2)CC1c1cccc([N+](=O)[O-])c1 (configuration not stated)	-0.3%	-9	-10	1.0	-4.2	-16
51	CCCC(=O)N1CCCC1(C)C(=O)Nc1ccc2c(c1)CCN2C(C)=O (configuration not stated)	0.1%	-10	-2	-0.3	-3.7	1
52	Cc1cc(N)ccc1NC(=O)c1ccccc1	-2.7%	-2	-12	0.2	-2.0	1
53	CCO[C@H]1OC(C(=O)N2CCN(Cc3ccc4c(c3)OCO4)CC2)=C[C@@H](c2ccccc2)[C@@H]1CCCO	-0.8%	-10	-5	0.1	-1.8	-6
54	COc1cc(C(=O)c2ccccc2C(=O)O)c(OC)c2c1CCCC2	1.1%	-4	-8	0.7	1.0	12
55	O=c1c2ccccc2[nH]c(=S)n1Cc1ccccc1	10%	2	4	0.0	-0.6	3
56	COc1cc2c(cc1NC(=O)CSc1nnc(Cc3cccs3)n1C)oc1ccccc12	-1.8%	-18	-1	-1.5	-2.4	-3
57	O=C(O)c1ccc(CSc2nnc(-c3ccncc3)n2-c2ccc(Br)cc2)cc1	-0.2%	-7	3	-1.0	-4.0	1
58	CN(CC(=O)Nc1ccccc1Cl)C(=O)c1cc(C2CC2)nn1-c1ccccc1	-0.2%	-19	x	-1.4	6.2	18
59	CCOc1ccc(C(=O)NN2C(=O)C3C4C=CC(O4)C3C2=O)cc1 (configuration not stated)	1.1%	-9	-3	-0.8	-2.6	0
60	CCCCn1nc(CC(=O)O)c2ccccc2c1=O	13%[38.3 µM]	-1	7	1.7	0.3	7

# New compounds follow
no.	Molecule	PINK1 expr mod	D2 PAM	CtBP-E1A inh	TRPML1 ag	D2 agonist	Six1-Eya2 inh
61	Cc1nn(C)c(C)c1C(=O)NN	-0.3%	-20	-1	0.4	3.3	9
62	CCOC(=O)c1c(NC(=O)c2cccc(N3C(=O)CCC3=O)c2)sc2c1CCN(CC)C2	0.0%	-6	0	-0.5	0.4	1
63	COc1ccc(CN(Cc2ccccn2)S(=O)(=O)c2ccc(-n3cnnn3)c(OC)c2)cc1	x	10	5	-0.3	-0.6	2
64	Cc1cc(=O)n(-c2ccccc2)n1C	0.6%	-9	2	-0.3	1.7	3
65	CCOC(=O)/C=C1/SCC(=O)N1Cc1ccc(Br)cc1	6.0%	1	7	0.3	5.4	1
66	Cc1cccc(NC(=O)CSc2nc(C)c(CC(=O)c3ccc(Br)cc3)c(C)c2C#N)c1C	7.4%	-7	-1	-0.6	-3.4	9

# Structures listed so far with a COOH group, in the order listed:
no.	Molecule	PINK1 expr mod	D2 PAM	CtBP-E1A inh	TRPML1 ag	D2 agonist	Six1-Eya2 inh
5	Cc1nc2ccccn2c1-c1csc(Nc2cccc(C(=O)O)c2)n1	2.2%	-5	-71*	0.4	3.6	u
15	O=C(O)Cn1cc(C(=S)N2CCOCC2)c2ccccc21	5.8%[38.3 µM]	-2	8	0.4	-2.5	0
18	CCN(CC)S(=O)(=O)c1ccc2c(c1)nc(CCC(=O)O)n2C	0.8%	-1	6	x	0.7	3
23	O=C(O)c1cc(N=Cc2c(O)c3ccccc3oc2=O)ccc1O	4.7%	3	-2	x	-5.3	-10
42	O=C(O)c1cccc(-c2csc(C(O)c3ccc(F)cc3)n2)c1 (configuration not stated)	1.2%	-3	8	-0.3	-3.7	5
54	COc1cc(C(=O)c2ccccc2C(=O)O)c(OC)c2c1CCCC2	1.1%	-4	-8	0.7	1.0	12
57	O=C(O)c1ccc(CSc2nnc(-c3ccncc3)n2-c2ccc(Br)cc2)cc1	-0.2%	-7	3	-1.0	-4.0	1
60	CCCCn1nc(CC(=O)O)c2ccccc2c1=O	13%[38.3 µM]	-1	7	1.7	0.3	7

# Assay outcomes from PubChem.
